# CSC inhib: cancer stem cell viability inhibitors, primary screen, luminescence; cancer stem cell-like cells viability; inhibition, % at 7.5 µM; 1.1% of 300,000 active; AID 2717, 2010;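 active = mean at 75% or more and at least half the replicates too; tested in HMLE shEcad cells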;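 also: 0% = median of negative and 100% = median of positive control wells; the first replicate is given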
# MT1-MMP act inh: blockers of MT1-MMP proenzyme processing, primary screen, HT1080 RFP-PRO-GFP cells, GFP/RFP fluorescence. Matrix metalloproteinase-14 (Homo sapiens), P50281. GFP/RFP ratio fluorescence, overnight; percent of plate control window, DMSO zero. GFP/RFP ratio change, % at 20 µM. 0.061% of 360,000 active. AID 651647, 2012;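 active = GFP/RFP ratio change of at least 30% with cell ATP level not reduced by more than half and red fluorescence within 50% of control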; also: strong numbers were not always called active
#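 Assay system: HT1080 RFP-PRO-GFP cells. Benchmarks: DMSO vehicle wells and RFP-L50D-GFP reporter cell wells. Times: overnight cell settling, then overnight compound exposure, 37 °C, 5% CO2. Compound: 20 µM single dose, 1% DMSO. Read-out basis: GFP/RFP fluorescence ratio.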
# Yeast UUG start: modulators of yeast start codon fidelity, primary screen, whole organism, S. cerevisiae, single point, plate reader | S. cerevisiae UUG-firefly luciferase reporter, luminescence/redox ratio | activity score, % at 18.7 µM | 0.13% of 350,000 active;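 active = replicate mean at a twofold rise or more, about +100% in these data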;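 also: firefly luciferase made from a UUG start codon reports start codon fidelity; reporter light over untreated wells divided by growth signal over untreated wells; some hits fall short of that in this replicate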
# PABP FP inh: PABP poly(A) RNA binding inhibitors, primary screen, biochemical, fluorescence polarization, uHTS; AID 2014, 2009; Polyadenylate-binding protein 1 (Homo sapiens), P11940; 1% of 290,000 active; inhibition, % at 35 µM;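 active = 50% or more with normal probe brightness, or confirmed in later tests; about a fifth of its hits are not listed in these tables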;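 also: calls also rest on retests at 20 µM and on dose response follow-up; controls were probe without protein and protein plus probe with vehicle; some compounds called inactive have numbers as strong as hits; many hits fall short of the cut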
# Target sequence (P11940 whole entry, looked up): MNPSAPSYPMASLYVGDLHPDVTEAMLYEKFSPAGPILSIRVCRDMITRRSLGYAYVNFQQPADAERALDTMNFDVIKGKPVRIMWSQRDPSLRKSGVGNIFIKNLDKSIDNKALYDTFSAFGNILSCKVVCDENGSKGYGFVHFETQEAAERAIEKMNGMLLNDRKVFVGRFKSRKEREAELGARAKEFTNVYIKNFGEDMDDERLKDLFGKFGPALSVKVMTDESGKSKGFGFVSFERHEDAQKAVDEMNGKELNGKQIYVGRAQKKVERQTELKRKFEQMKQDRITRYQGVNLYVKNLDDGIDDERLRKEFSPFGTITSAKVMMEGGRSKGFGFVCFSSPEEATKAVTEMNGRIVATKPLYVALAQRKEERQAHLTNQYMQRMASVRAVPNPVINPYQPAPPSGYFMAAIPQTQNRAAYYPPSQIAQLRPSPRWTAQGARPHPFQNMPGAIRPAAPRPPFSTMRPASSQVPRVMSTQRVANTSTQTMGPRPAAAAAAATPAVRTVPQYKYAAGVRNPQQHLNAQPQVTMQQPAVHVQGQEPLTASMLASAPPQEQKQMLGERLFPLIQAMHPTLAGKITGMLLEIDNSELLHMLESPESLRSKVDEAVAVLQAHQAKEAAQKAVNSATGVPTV
# Env fusion inh: inhibitors of HIV-1 Env-driven cell-cell fusion, primary screen, HeLa-JRFL effector, CEM21 target cells, luciferase. AID 651610, 2012. 1.1% of 360,000 active. inhibition, % at 12.3 µM;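 active = mean replicate inhibition score of at least 50 and every replicate individually at or above 50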;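 also: 0% = plate neutral controls and 100% = maraviroc near 300 nM; one replicate is shown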
# eIF4H FP inh: human eIF4H binding inhibitors, primary screen, translation initiation inhibitor project, biochemical, uHTS, fluorescence polarization. Eukaryotic translation initiation factor 4H (Homo sapiens), Q15056. eIF4H fluorescence polarization binding assay. inhibition, % at 35 µM. 0.94% of 290,000 active;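 active = 50% or more with normal probe brightness, or confirmed in later tests; about a fifth of its hits are not listed in these tables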;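 also: calls also rest on retests at 20 µM and on dose response follow-up; 0% = protein and probe with vehicle and 100% = probe without protein; strong numbers were not always called active; many hits fall short of the cut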
# Rce1 inh: yeast Rce1p protease inhibitors, primary screen, biochemical, fluorescence, cell-free homogeneous; CAAX prenyl protease 2 (Saccharomyces cerevisiae (strain ATCC 204508 / S288c)), Q03530; yeast membranes, quenched prenylated peptide cleavage fluorescence; calls only; 0.27% of 290,000 active; AID 2563, 2010;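 active = fall in fluorescence gain of 50% or more versus controls, with final raw signal at or below 3038400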;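 also: plate controls were neutral control wells for no effect and wells lacking membranes for full effect; tested at 10 µM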
# Target sequence (Q03530 whole entry, looked up): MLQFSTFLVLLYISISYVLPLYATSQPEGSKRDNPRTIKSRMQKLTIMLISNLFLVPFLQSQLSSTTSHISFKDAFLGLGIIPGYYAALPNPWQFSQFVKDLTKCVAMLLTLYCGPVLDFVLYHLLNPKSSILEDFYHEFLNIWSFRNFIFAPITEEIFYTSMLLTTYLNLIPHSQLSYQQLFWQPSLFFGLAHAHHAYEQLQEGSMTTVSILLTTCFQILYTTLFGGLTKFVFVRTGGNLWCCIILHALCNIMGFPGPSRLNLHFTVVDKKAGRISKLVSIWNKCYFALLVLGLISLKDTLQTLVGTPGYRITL
# MT1-MMP act inh RFP: further read-out of MT1-MMP act inh, marked with its call; RFP signal change, %; measured here: RFP expression control read;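 0 = vehicle wells; hits needed this value within 50% of zero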
# Active calls of the source: *; i = inactive; / = not tested or not shown. No enrichment for hits; about 2.9% have a hit in one of these screens.
item	SMILES	CSC inhib	MT1-MMP act inh	MT1-MMP act inh RFP	Yeast UUG start	PABP FP inh	Env fusion inh	eIF4H FP inh	Rce1 inh
1	O=C(COC(=O)C1COc2ccccc2O1)NC1CCS(=O)(=O)C1 (stereo not given)	-9	-6	0	-12	0	/	3	i
2	CCOc1ccc(NC(=O)C/C(C)=N/NC(=O)Cc2ccc(Cl)cc2)cc1	2	0	1	-5	3	-11	11	i
3	Cc1csc(NC(=O)c2cccn2C)n1	/	3	4	-23	-5	/	8	i
4	COc1ccc(NC(C)=O)cc1S(=O)(=O)Nc1ccc2c(c1)OCCO2	-14	-1	3	/	-2	-7	-13	i
5	N#Cc1ccc(OCC(=O)Nc2ccc3[nH]c(=O)[nH]c3c2)cc1	-11	4	1	-26	/	-5	/	i
6	CCOc1ccccc1Nc1ncnc2ccccc12	-3	0	-6	-12	3	/	-6	/
7	CC(C)(C)C(=O)OC/C(N)=N/OC(=O)c1ccc(Cl)c(Cl)c1	6	1	-1	16	10	4	-4	i
8	CCC1Cc2[nH]c(=S)[nH]c(=O)c2C(c2ccc(Cl)cc2)O1 (stereo not given)	/	-1	0	-8	/	12	/	/
9	COc1c(F)c(F)c(C(=O)O)c(Nc2ccccc2)c1F	-21	0	4	-4	-3	1	-7	i
10	O=C(CS(=O)(=O)Cc1ccccc1)Nc1cccnc1	-14	2	4	-26	-12	-17	-5	i
11	COc1ccc(NC(=O)Nc2nnc(-c3ccccc3F)s2)cc1	-8	2	3	/	-1	-8	-3	i
12	O=c1[nH][nH]cc1C=Nc1ccccc1O	21	10	-2	/	-6	72*	21	i
13	COCCNC(=O)CCc1c(C)nc2c(c(C)nn2-c2ccc(C)c(C)c2)c1C	4	0	-6	8	11	15	-8	i
14	CCN1CCC(NC(=O)Nc2cccc(C(F)(F)F)c2)CC1	-17	-2	1	/	-6	9	0	i
15	CCCn1c(N)c(C(=O)CSc2nc(C)cs2)c(=O)[nH]c1=O	-6	2	-1	/	8	/	0	i
16	COc1ccc2c(c1OC)CCC2=O	10	4	8	0	-16	-4	7	i
17	COc1ccc(OCCCC(=O)ON=C(N)c2ccccc2C)cc1	-8	1	5	7	/	-1	/	/
18	CCCCN(C)c1c(C)nc2ccc(C(=O)NCc3ccc4c(c3)OCO4)cn12	/	1	6	-8	/	19	/	/
19	CN1CC(=O)N(CC(=O)Nc2cc(Cl)cc(Cl)c2)C1=O	12	4	1	/	-1	-9	2	i
20	Cn1c2ccccc2c(=O)c2c(O)cccc21	1	-5	-3	/	2	-75	1	i
21	Cc1cc(=O)[nH]c(SCC(=O)Nc2ccnc3ccccc23)n1	-5	3	6	/	17	4	1	i
22	Cc1ccc(NC(=O)C2CC(=O)N(Cc3ccccc3)C2)cc1S(=O)(=O)N1CCCCCC1 (stereo not given)	-12	1	-16	/	23	/	-11	i
23	CCOc1ccc(Nc2ccc3nonc3c2[N+](=O)[O-])cc1	-12	0	-5	-10	-9	-1	2	i
24	OCC1(Cc2ccccc2)CCCN(Cc2ccc(-c3ccco3)cc2)C1 (stereo not given)	1	-10	-3	7	-22	14	-5	i
25	OCCN1CCN(CC(O)COc2ccc(Cl)cc2)CC1 (stereo not given)	-10	0	1	-14	11	/	4	i
26	Cc1ccc(NC(=O)Cn2cc([N+](=O)[O-])nc2C)cc1C	-3	6	-1	3	14	-1	1	i
27	CCC(c1nnnn1C(C)(C)CC)N(CCCO)Cc1cc2cccc(C)c2[nH]c1=O (stereo not given)	-15	-2	2	6	4	/	-9	i
28	O=C(CCCn1nnnc1CN1CCOCC1)N1CCC(c2ccc(F)cc2)C1 (stereo not given)	0	-3	0	3	-7	/	-4	i
29	CCc1ccccc1NC(=O)Nc1ccc(F)cc1F	0	2	-2	/	-10	9	-7	i
30	Cc1cc(N2C(=O)C(O)=C(C(=O)c3ccco3)C2c2cccc(Oc3ccccc3)c2)no1 (stereo not given)	21	-7	0	-27	13	3	-2	i

# Random excerpt: 2 records from the list, in no set order.
item	SMILES	CSC inhib	MT1-MMP act inh	MT1-MMP act inh RFP	Yeast UUG start	PABP FP inh	Env fusion inh	eIF4H FP inh	Rce1 inh
2	CCOc1ccc(NC(=O)C/C(C)=N/NC(=O)Cc2ccc(Cl)cc2)cc1	2	0	1	-5	3	-11	11	i
17	COc1ccc(OCCCC(=O)ON=C(N)c2ccccc2C)cc1	-8	1	5	7	/	-1	/	/

# Among those listed so far, these contain a Cl atom.
item	SMILES	CSC inhib	MT1-MMP act inh	MT1-MMP act inh RFP	Yeast UUG start	PABP FP inh	Env fusion inh	eIF4H FP inh	Rce1 inh
2	CCOc1ccc(NC(=O)C/C(C)=N/NC(=O)Cc2ccc(Cl)cc2)cc1	2	0	1	-5	3	-11	11	i
7	CC(C)(C)C(=O)OC/C(N)=N/OC(=O)c1ccc(Cl)c(Cl)c1	6	1	-1	16	10	4	-4	i
8	CCC1Cc2[nH]c(=S)[nH]c(=O)c2C(c2ccc(Cl)cc2)O1 (stereo not given)	/	-1	0	-8	/	12	/	/
19	CN1CC(=O)N(CC(=O)Nc2cc(Cl)cc(Cl)c2)C1=O	12	4	1	/	-1	-9	2	i
25	OCCN1CCN(CC(O)COc2ccc(Cl)cc2)CC1 (stereo not given)	-10	0	1	-14	11	/	4	i

# Carrying on.
item	SMILES	CSC inhib	MT1-MMP act inh	MT1-MMP act inh RFP	Yeast UUG start	PABP FP inh	Env fusion inh	eIF4H FP inh	Rce1 inh
31	C=CCn1c(SCn2nnc3ccccc3c2=O)nnc1-c1ccc(F)cc1	-8	-6	-2	-8	0	/	-2	i
32	CC1=C/C(=N\N=C2\NC(=O)C(CC(=O)Nc3ccccc3)S2)CC(C)(C)C1 (stereo not given)	-2	0	2	/	-9	-31	10	i
33	Cc1ccc(S(=O)(=O)Nc2ccc(NC(=O)c3ccc(F)cc3)cc2)cc1	-2	0	-4	/	26	1	-2	i
34	Cc1ccc(Nc2nc3ccccc3c(=O)[nH]2)cc1C	13	-7	-5	/	12	-38	3	i
35	CCc1ccc(-c2cc(C)no2)cc1S(=O)(=O)N1CCN(c2ccc(OC)cc2)CC1	56	-5	-21	-11	-3	3	-5	i
36	CC(C)Cn1c2c(c(O)c(C(=O)Nn3c(Cc4ccccc4)nc4ccccc4c3=O)c1=O)CCCC2	30	-15	-15	/	3	25	-4	i
37	CCOc1ccc(C2C(C(=O)c3ccco3)=C(O)C(=O)N2Cc2cccnc2)cc1OC (stereo not given)	-1	2	3	7	21	/	-11	i
38	Cc1cccc(CSc2[nH]c(=O)ncc2C)c1	1	4	3	-23	-2	5	-7	i
39	COc1cccc(NC(=O)CCNC(=O)c2ccccc2Cl)c1	-15	-2	4	-15	2	/	4	i
40	CC(C)C(=O)N1CCC2(CC1)Oc1ccc(F)cc1C(=O)C21CC(c2ccc(Cl)cc2)=NO1 (stereo not given)	2	-10	-14	-12	1	-73	-10	i
41	O=C(CO/N=C/c1ccc(Cl)cc1Cl)NNC(=O)c1cccc(Cl)c1	0	0	-1	-18	-11	-8	-13	i
42	CCOc1ccccc1/C=N/n1c(COc2ccccc2)n[nH]c1=S	-6	1	-3	-10	-1	-5	6	i
43	O=C(CSc1nc2ccccc2c(=O)n1CCCO)NCc1ccccc1	-8	2	1	-8	-1	-40	-13	i
44	CC1Oc2ccccc2C=C1/C=N/NC(=O)c1ccccc1O (stereo not given)	15	-1	-10	/	9	0	14	i
45	CC(=O)Nc1ccc(/C=C/c2ccc3cccc([N+](=O)[O-])c3n2)cc1	58	-5	-10	-9	10	-50	6	i
46	CCC(=O)N1CCCC1(C)C(=O)Nc1ccc(OC(F)F)cc1 (stereo not given)	/	-1	0	-3	/	-9	/	/
47	Fc1ccccc1N1CCN(Cc2cc(-c3ccccc3)on2)CC1	-4	5	2	-10	3	-1	8	i
48	CCOC(=O)C1=C(O)CSC1=Nc1cccc2ccccc12	-1	-5	3	-5	-7	/	4	i
49	c1ccc(-c2nc(NCC3CCCO3)c3oc4ccccc4c3n2)cc1 (stereo not given)	8	-5	-1	3	9	-79	-1	i
50	CC1(C)Cc2ccccc2C2CC(O)C(=O)N21 (stereo not given)	25	-39	2	-5	5	/	9	i
51	CCN(C(=O)CSc1ccc2ccccc2n1)C1CCS(=O)(=O)C1 (stereo not given)	-5	0	2	/	-1	-4	4	i
52	Cn1cnnc1Sc1ccc(C(=O)NCCC23CC4CC(CC(C4)C2)C3)cc1[N+](=O)[O-]	12	-4	-6	/	-1	-16	2	i
53	CCOc1ccc(S(=O)(=O)NCCC(=O)NCc2ccncc2)cc1	28	-1	3	-4	/	10	/	i
54	COc1cc2c(cc1OC)CN(C(=O)CSc1nnc(C)s1)CC2	/	-1	6	4	7	16	-3	i
55	CCN1CCN(C(c2cccc(OC)c2OC)c2nnnn2Cc2ccco2)CC1 (stereo not given)	-2	-2	-1	/	-6	0	6	i
56	COc1ccc(OCC(NS(=O)(=O)c2ccc(-n3cnnn3)cc2)C(C)C)cc1 (stereo not given)	10	0	-4	2	/	-14	/	i
57	O=C(O)CCCc1c(-[n+]2ccccc2)[nH]c2ccccc12	-8	2	4	/	25	-3	5	i
58	O=C(CSc1nncs1)NC(=O)NCc1ccccc1	-7	0	0	-3	-4	/	0	i
59	CCC1CCCCN1Cc1ccc(OC)c(OC)c1 (stereo not given)	-13	12	6	/	-2	/	-7	i
60	COC(=O)c1ccc(NC(=O)Nc2ccc([N+](=O)[O-])cc2)cc1	12	5	-12	-16	10	14	-5	i
61	O=C(CN1CCN(C(=O)c2c(F)cccc2F)CC1)Nc1ccccc1C(F)(F)F	-8	1	-6	-7	5	15	15	i
62	C=CCNC(=O)COC(=O)c1ccc(Cl)c(S(=O)(=O)N(Cc2ccccc2)c2ccccc2)c1	19	4	8	/	6	-11	-2	i
63	Cc1ccccc1C1NC(=O)c2ccccc2O1 (stereo not given)	0	5	-2	-20	-4	9	0	i
64	COc1ccc2c3c([nH]c2c1)[C@H]1C[C@H]2[C@H](C[C@@H](O)[C@H](OC)[C@H]2C(=O)O)CN1CC3	-14	-26	7	-13	/	-8	/	/
65	CCC(C)(C)NC(=O)C(c1ccc(F)cc1)N(Cc1cccs1)C(=O)c1cnccn1 (stereo not given)	-11	-2	-3	1	12	41	5	i
66	O=C(O)c1ccc(N2CCN(C(c3ccccc3)c3ccccc3)CC2)c([N+](=O)[O-])c1	/	-6	-6	-1	26	7	4	i
67	COC(=O)c1nnn(-c2nonc2N)c1CN1CCCC1	/	3	7	-12	-5	19	-1	i
68	CC(C)(C)C(=O)NCCc1nc2ccccc2n1CC(=O)c1ccc(Cl)cc1	-20	-2	0	10	1	15	0	i
69	CCN(CC)S(=O)(=O)c1ccc(O)c(C(=O)OCC(=O)N2c3ccccc3CC2C)c1 (stereo not given)	-5	1	0	1	26	1	40	i
70	C=CCN1CCN(c2ccncc2S(=O)(=O)N2CCN(C)CC2)CC1	/	-1	0	-4	/	28	/	/
71	COC(=O)c1ccccc1S(=O)(=O)Oc1ccc(-c2ccc(C(=O)O)cc2)cc1	-14	-4	-2	-21	12	-1	7	i
72	COc1ccccc1C(CCN(Cc1ccccc1)C(C)=O)c1ccco1 (stereo not given)	39	-10	-15	4	11	9	-9	i
73	COC(=O)c1ccc(-c2cc3onc(-c4ccccc4)c3c(=O)n2C)cc1	-3	-1	-15	-12	/	-5	/	/
74	Cc1ccccc1N(CC(=O)NCC1CCCO1)C(=O)CNS(=O)(=O)c1ccc(F)cc1 (stereo not given)	-4	-4	0	-13	7	14	3	i

# Assay outcomes (PubChem BioAssay)
